Screening data (PubChem BioAssay)
FGF22 binding: binders of recombinant human FGF22 by thermal shift. calls only at 9.99 µM. 340,000 tested, 1.5% active. SYPRO orange fluorescence; percent of sucrose octasulfate shift, DMSO zero. Q9HCT0;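 active = melting point raised past a set limit in the mean and every replicate; inconclusive = no clear call; three in four hits are not shown here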
Target sequence (Q9HCT0 whole entry, looked up): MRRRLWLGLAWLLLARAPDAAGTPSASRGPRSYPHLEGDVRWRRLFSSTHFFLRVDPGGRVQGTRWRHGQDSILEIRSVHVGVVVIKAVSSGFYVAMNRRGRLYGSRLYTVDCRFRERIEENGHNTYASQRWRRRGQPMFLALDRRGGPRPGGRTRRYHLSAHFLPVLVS
Beta cell apopt: beta cell apoptosis inhibition; INS-1E cytokine-induced death, ATP luminescence, 48 h; percent of positive-control rescue, neutral wells zero; protection from apoptosis, % (no concentration beside the values); 300,000 tested, 0.8% active; AID 435005;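 active = all replicates at 75% or more, or half of them and the mean; inconclusive = half reach 75% but not the mean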;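 also: 0% = cytokine-treated negative control wells and 100% = positive control rescue; higher means more ATP so stronger rescue from cytokine killing; wells of about 40 µL received 100 nL stock; the first replicate is given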
Calb FLC: affects C. albicans growth with fluconazole; growth inhibition, % (test concentration not listed); C. albicans CaCi-2 (fluconazole-resistant clinical isolate) + fluconazole, Alamar Blue growth, 48 h; 300,000 tested, 0.57% active;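 active = most replicates above 75%; inconclusive = exactly half above 75%; inactive = most below 75%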;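 also: all wells also contain fluconazole at 8 µg/ml as a sub-toxic cotreatment; 0% = median of DMSO wells and 100% = median of geldanamycin control wells; wells of about 8 µL received 7.5 nL stock; the first replicate is given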
T cruzi repl: blocks replication of Trypanosoma cruzi; inhibition, % (concentration not given with the values); T. cruzi beta-gal in NIH3T3, luminescence, 90 h; AID 1885; 300,000 tested, 1.4% active;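 active = mean inhibition across valid replicates above about 55%, limit read from the data; inconclusive = mean below that limit but half or more replicates reach it; inactive = mean below it, under half of replicates reach it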;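 also: signal also drops with host cell toxicity which is not excluded here; 0% = plate median of DMSO wells and 100% = zero luminescence signal; higher percent means less beta-gal luminescence so fewer parasites; stock transfer was 50 nL into about 50 µL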
RanGTP-Impb inh: inhibitors of RanGTP-importin-beta interaction, primary screen, biochemical, FRET, CFP-Ran, YFP-importin-beta, homogeneous; cell-free CFP-Ran/YFP-importin-beta FRET ratio; inhibition, % (concentration not given with the values); 300,000 tested, 1.1% active;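 active = most replicates above 15%; inconclusive = exactly half above 15%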;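 also: 0% = DMSO wells and 100% = Ran loaded with GDP instead of GTP; wells of about 40 µL received 100 nL stock; the first replicate is given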
ALR inh: human ALR oxidase inhibition via reduced H2O2. P55789. purified ALR, DTT oxidation, H2O2 HRP-luminol luminescence. inhibition, % (no concentration beside the values). 290,000 tested, 3.8% active. AID 485317;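 active = mean and each replicate at 75% or more; inconclusive = only one of the two met; inactive = neither met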;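 also: stock transfer was 7.5 nL into about 7.5 µL; 0% = neutral wells and 100% = wells with inactivated enzyme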
Target sequence (P55789 whole entry, looked up): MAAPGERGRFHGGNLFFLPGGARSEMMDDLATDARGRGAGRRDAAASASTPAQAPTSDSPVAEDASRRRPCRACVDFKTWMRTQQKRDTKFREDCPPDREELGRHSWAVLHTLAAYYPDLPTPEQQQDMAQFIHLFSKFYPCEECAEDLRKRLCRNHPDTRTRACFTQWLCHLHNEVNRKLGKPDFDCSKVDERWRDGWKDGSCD
AF4-AF9 inh: inhibitors of human MLL-AF4/AF9 interaction; P42568; inhibition, % at 10 µM; AlphaScreen, biotin-AF4 peptide binding to FLAG-AF9; 350,000 tested, 0.47% active; AID 651704;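 active = every replicate reaching a set inhibition limit, whatever the replicate mean, cut at about 25% in these data; inconclusive = mean inhibition reaches that limit but some replicates miss it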;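 also: 0% = plate neutral control median and 100% = total signal loss; the record names both 10 and 1 µM as test concentration; the first replicate is given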
Target sequence (P42568 whole entry, looked up): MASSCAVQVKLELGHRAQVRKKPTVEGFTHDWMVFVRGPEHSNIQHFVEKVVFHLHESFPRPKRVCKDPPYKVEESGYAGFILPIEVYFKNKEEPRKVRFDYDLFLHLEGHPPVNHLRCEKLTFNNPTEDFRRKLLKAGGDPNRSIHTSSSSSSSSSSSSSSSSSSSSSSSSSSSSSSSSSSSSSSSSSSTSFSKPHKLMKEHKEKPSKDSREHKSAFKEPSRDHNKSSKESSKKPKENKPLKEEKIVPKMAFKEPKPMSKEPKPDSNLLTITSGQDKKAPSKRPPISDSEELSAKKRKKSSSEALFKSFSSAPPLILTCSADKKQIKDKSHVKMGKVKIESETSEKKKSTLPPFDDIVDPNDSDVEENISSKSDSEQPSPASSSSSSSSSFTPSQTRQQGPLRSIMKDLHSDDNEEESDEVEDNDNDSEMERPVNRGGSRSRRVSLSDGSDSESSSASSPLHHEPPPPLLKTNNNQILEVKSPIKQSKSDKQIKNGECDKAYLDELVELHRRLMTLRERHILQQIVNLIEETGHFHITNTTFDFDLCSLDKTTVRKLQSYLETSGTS
Ecoli rRNA inh: selective bacterial rRNA inhibition in E. coli. E. coli WT GFP vs humanized-ribosome RFP mutants, fluorescence, 24 h; stronger effect = lower value; DMSO median 0, no signal -100. GFP signal change (wild-type ribosome), % (no concentration beside the values). 350,000 tested, 1.6% active;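 active = significant combined selectivity score with lowered wild-type GFP, culture density cut under 30%, mutant RFP and density less affected; inactive = any of these conditions unmet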; also: one replicate is shown; some compounds called inactive have numbers as strong as hits
Ecoli rRNA inh OD600: recorded beside Ecoli rRNA inh, whose call it bears; OD600 change, %; measured here: OD600 growth;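 optical density of the mix in the first replicate; 0 = DMSO median and -100 = no signal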
Ecoli rRNA inh RFP: further read-out of Ecoli rRNA inh, marked with its call; RFP signal change, %; measured here: RFP humanized mutant strains;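 first replicate; 0 = DMSO median and -100 = no signal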
Starred values were filed as active, the others as inactive; i = inactive; u = inconclusive; x = not tested or not shown.

SMILES | FGF22 binding | Beta cell apopt | Calb FLC | T cruzi repl | RanGTP-Impb inh | ALR inh | AF4-AF9 inh | Ecoli rRNA inh | Ecoli rRNA inh OD600 | Ecoli rRNA inh RFP
COc1ccc(NS(=O)(=O)c2cccs2)c(OC)c1 | x | 0 | -10 | -19 | -4.5 | 0 | x | x | x | x
CC(C)(C)N(Cc1ccccc1)C(=O)c1ccc(Br)o1 | i | -5 | -4 | 9 | -3.5 | x | -5.4 | 5 | 10 | 1.8
O=C(COc1ccc(Br)cc1Cl)NC(=S)N1CCc2ccccc21 | i | 5 | -6 | -14 | -0.3 | -8 | -2.0 | x | x | x
CCCOc1ccc(-c2c(C(=O)N/N=C/C3CCCCC3)nnn2-c2nonc2N)cc1 | i | -15 | 6 | 14 | u | -2 | -1.1 | 2 | 5 | 2.3
O=C(NCC(c1ccco1)N1CCOCC1)c1cccc(Cl)c1 (stereo not given) | i | -5 | -3 | -8 | 3.4 | -5 | -0.7 | 3 | 0 | -3.2
COc1ccc(CCNC(=O)C2CC3Cn4c(nc5cc6ccccc6cc54)C3N2C)cc1 (stereo not given) | i | -2 | -25 | -7 | 3.8 | x | -0.3 | 0 | 1 | -2.3
COc1cccc(NC(=O)Nc2nnc(Cc3ccccc3)s2)c1 | i | -9 | -10 | 8 | 2.8 | 0 | -1.1 | -3 | 5 | -1.7
COc1ccccc1NC(=O)/C=C1\SCC(=O)N1C | i | 0 | 1 | 71* | 0.1 | 0 | -0.4 | 8 | 7 | 0.2
Cc1ccc(C(=O)CSC2=C(C#N)C(c3ccco3)C3=C(CCCC3=O)N2)cc1 (stereo not given) | x | 6 | 29 | 32 | u | 99* | x | x | x | x
COCCN1CN(S(=O)(=O)c2cccc(Cl)c2)c2nc3ccccc3nc21 | i | -11 | 18 | 10 | 4.7 | 7 | -0.6 | 4 | -7 | 1.9
O=c1c2ccsc2ncn1Cc1ccc(Cl)cc1 | x | -9 | 10 | 5 | 5.9 | -2 | x | x | x | x
CN1CCN(c2ccc(-c3ccnn3C(=O)Nc3cccc(C(F)(F)F)c3)cc2)CC1 | i | 8 | x | 35 | x | 23 | 0.2 | -46 | -78 | -9.6
O=C(CCc1nc(-c2ccccc2)no1)N1CCCC1 | x | -6 | 22 | -5 | u | 2 | x | x | x | x
Cn1c(=O)n(C/C=C/c2ccccc2)c(=O)c2c1nc1n2CCCN1Cc1ccccc1 | x | 5 | 2 | 52 | u | -6 | x | x | x | x
NC(=O)CC[C@@H]1NC(=O)[C@@H]2CCCN2C(=O)c2cc([N+](=O)[O-])cc(I)c2NCCCC[C@@H](C(=O)NC(CC(=O)O)C(N)=O)NC1=O (stereo not given in full) | x | -1 | -10 | -14 | 5.1 | -2 | x | x | x | x
Cc1ccc(-c2csc(-c3cc(C)on3)n2)cc1 | i | 1 | -6 | 4 | -4.4 | -1 | -13 | 4 | 9 | -1.0
COc1cc(/C=N/NC(=O)c2cccnc2)ccc1OC(=O)c1ccco1 | x | -4 | 10 | -9 | -0.6 | 49 | x | x | x | x
CC1(C)CC(=O)C2=C(C1)OC1=C(C(=O)CC(C)(C)C1)C2c1ccc(O)c([N+](=O)[O-])c1 | i | -5 | 20 | 14 | 0.0 | -5 | 2.0 | 10 | 8 | -3.1
COc1ccc(C(=O)N2CCN(Cc3ccc4c(c3)OCO4)CC2)cc1[N+](=O)[O-] | i | 5 | -23 | 10 | 4.5 | -2 | -1.2 | 8 | 6 | 1.2
CN(CC(=O)Nc1ccc(F)c(F)c1)S(=O)(=O)c1cccc2nsnc12 | x | 5 | -5 | -1 | -4.3 | -9 | x | x | x | x
O=C(/C=C/c1ccccc1[N+](=O)[O-])N1CCN(C(=O)c2ccco2)CC1 | i | 2 | -1 | -15 | 1.5 | 0 | -2.4 | 1 | 3 | -5.1
O=C(NCc1ccco1)c1ccc(N2CCCC2=O)cc1 | x | 0 | 7 | 5 | 3.4 | 2 | x | x | x | x
CCCn1c(NCc2ccccc2NS(=O)(=O)c2ccc(C)cc2)nc2ccccc21 | i | 17 | 5 | 43 | 1.8 | -1 | -1.9 | 3 | -6 | 6.4
C/C(=N\NC(=O)COc1ccc(C)cc1[N+](=O)[O-])c1ccc2c(c1)OCCO2 | i | -5 | 12 | 6 | 1.9 | x | -1.6 | 12 | 5 | 0.8
O=C(CCl)c1ccc(Cc2ncc(C(F)(F)F)cc2Cl)s1 | x | 3 | 1 | -18 | 1.0 | x | x | x | x | x

Next section:
SMILES | FGF22 binding | Beta cell apopt | Calb FLC | T cruzi repl | RanGTP-Impb inh | ALR inh | AF4-AF9 inh | Ecoli rRNA inh | Ecoli rRNA inh OD600 | Ecoli rRNA inh RFP
COc1cc(C(C)=O)ccc1OC(=O)CN1C(=O)c2ccccc2C1=O | i | 1 | 6 | -5 | u | 56 | -1.9 | 19 | 11 | 0.5
COc1ccc(-c2nc(SCC(=O)Nc3cc(C)on3)n[nH]2)cc1 | x | 7 | 6 | -7 | 5.7 | -8 | x | x | x | x
O=C(c1ccc(NS(=O)(=O)c2cccc(F)c2)cc1)N1CCCCC1 | i | -3 | -3 | -19 | 0.1 | 1 | 2.7 | 6 | -7 | 3.3
CCN=C1SC(C(=O)Nc2cccc(Cl)c2)CC(=O)N1CC (stereo not given) | x | -3 | -2 | -9 | 3.1 | -3 | 1.1 | -2 | 5 | -2.2
O=C(COC(=O)c1c2c(nc3ccccc13)CCCCC2)NCc1ccc2c(c1)OCO2 | x | 4 | -11 | 37 | 4.0 | -15 | x | x | x | x
CCOC(=O)N1CCN(C(=O)CN(C2CCCCC2)S(C)(=O)=O)CC1 | x | -4 | 2 | -9 | 3.2 | 0 | x | 8 | 15 | 2.1
C=CCn1c(SCc2nc3ccccc3[nH]2)nnc1-c1ccc(OC)cc1 | x | 5 | 6 | -8 | -0.6 | 3 | x | x | x | x
CC(C)OCC(O)CS(=O)(=O)Cc1ccccc1 (stereo not given) | x | -5 | -11 | -31 | 1.4 | -9 | x | x | x | x
CCN1CCN(c2ccc(S(=O)(=O)N3CCCCC3)cc2NC(=O)C(C)Oc2ccc(F)cc2)CC1 (stereo not given) | i | 6 | -2 | 42 | 5.1 | 1 | -14 | 1 | 1 | 5.4
O=C(Nc1ncccn1)c1ccc([N+](=O)[O-])cc1Cl | i | -4 | -5 | -2 | u | -35 | -1.8 | 6 | 17 | -3.2
COc1cc(C(=O)N(C)CCOc2ccc(C)cc2)ccc1OC1CCN(C(C)=O)CC1 | i | 4 | -5 | -11 | 0.3 | x | 0.2 | x | x | x
CC(=O)c1c(C)oc2ccc(O)c(CN3CCOCC3)c12 | x | -19 | -2 | -11 | 0.7 | x | x | x | x | x
O=C(CCn1nnc(-c2cccs2)n1)NCc1ccccc1Cl | i | -2 | 26 | 12 | 3.2 | -8 | -47 | -11 | -10 | -1.9
Cc1ccc(CNC(=O)C2CCC(=O)N(C3CCCC3)C2)c(F)c1F (stereo not given) | i | -3 | 5 | -4 | -2.2 | -9 | 0.8 | 0 | -1 | 0.1
C=CCn1c(SCC(=O)/C(C#N)=C(\C)N)nc2sc(CC)cc2c1=O | i | -2 | -13 | 43 | -1.2 | 27 | -0.3 | -5 | -6 | 3.1
COc1nc(-c2ccccc2)ccc1-c1noc(COc2ccccc2)n1 | x | x | 6 | 8 | -3.3 | 2 | x | x | x | x
O=C(NCCCn1ccnc1)Nc1ccc2c(c1)OCO2 | i | 0 | -10 | 6 | 10 | x | 0.8 | 15 | 15 | 1.4
Nc1nc(CN2CCN(c3ccccc3)CC2)nc(N2CCCc3ccccc32)n1 | x | -3 | -6 | -26 | -1.1 | 98* | x | x | x | x
CC(=O)c1c(C)[nH]c(C(=O)CSc2nc3ccccc3n2C)c1C | x | 16 | 2 | 0 | u | -1 | x | x | x | x
S=C(NNc1ccnc2cc(Cl)ccc12)Nc1ccccc1Cl | x | x | 0 | 36 | u | -1 | x | x | x | x
CCN(CC)CCCn1c(C)cc2c(c1=O)C(c1ccccc1)C(C#N)=C(N)O2 (stereo not given) | x | 2 | -8 | 2 | 1.8 | -3 | x | x | x | x
CN(CC(=O)NCc1ccccc1F)S(=O)(=O)c1ccc(Cl)cc1 | i | 3 | 11 | 7 | 2.3 | x | -0.6 | 1 | 13 | 8.5
Cc1nnsc1S(=O)(=O)c1ccccc1 | i | -8 | 0 | -11 | 4.6 | -14 | -0.7 | 11 | 7 | 2.9
COc1ccc(COC(=O)c2cccc(S(=O)(=O)N3CCCC3)c2)cc1F | i | 0 | -1 | 8 | 3.9 | 0 | -2.2 | -12 | -17 | -3.9
COc1cccc(NC(=O)CSc2nnc(-c3cccc(OC(C)C)c3)n2N)c1 | x | -10 | 2 | -23 | 0.1 | x | x | x | x | x
CCCCC(=O)Nc1ccc(C(=O)NCCc2ccccc2)cc1 | x | -6 | u | -8 | 3.3 | 1 | x | x | x | x
COc1ccc(OC)c(NC(=O)c2cccnc2)c1 | i | 8 | 5 | 11 | 1.9 | -10 | -1.1 | 12 | 4 | 2.2
Cc1ccccc1C(=O)Nc1nnc(CC(=O)N/N=C/c2cn(Cc3ccccc3)c3ccccc23)s1 | i | 9 | -20 | -3 | 6.7 | 10 | -6.4 | 5 | 2 | 1.1
O=C(CO/N=C/c1ccccc1)Nc1c(F)c(F)c(F)c(F)c1F | i | 5 | -27 | -18 | -2.4 | -3 | -1.1 | 5 | 2 | 1.3
CN1CCN(c2ccccc2NS(=O)(=O)c2ccc3c(c2)CCN3C(=O)C2CCC2)CC1 | x | 4 | -7 | 34 | u | 20 | x | x | x | x

Eight entries out of the list, ordered by number of heavy atoms, falling:
SMILES | FGF22 binding | Beta cell apopt | Calb FLC | T cruzi repl | RanGTP-Impb inh | ALR inh | AF4-AF9 inh | Ecoli rRNA inh | Ecoli rRNA inh OD600 | Ecoli rRNA inh RFP
CCN1CCN(c2ccc(S(=O)(=O)N3CCCCC3)cc2NC(=O)C(C)Oc2ccc(F)cc2)CC1 (stereo not given) | i | 6 | -2 | 42 | 5.1 | 1 | -14 | 1 | 1 | 5.4
COc1cc(C(=O)N(C)CCOc2ccc(C)cc2)ccc1OC1CCN(C(C)=O)CC1 | i | 4 | -5 | -11 | 0.3 | x | 0.2 | x | x | x
Nc1nc(CN2CCN(c3ccccc3)CC2)nc(N2CCCc3ccccc32)n1 | x | -3 | -6 | -26 | -1.1 | 98* | x | x | x | x
C=CCn1c(SCc2nc3ccccc3[nH]2)nnc1-c1ccc(OC)cc1 | x | 5 | 6 | -8 | -0.6 | 3 | x | x | x | x
COc1ccc(-c2nc(SCC(=O)Nc3cc(C)on3)n[nH]2)cc1 | x | 7 | 6 | -7 | 5.7 | -8 | x | x | x | x
O=C(NCCCn1ccnc1)Nc1ccc2c(c1)OCO2 | i | 0 | -10 | 6 | 10 | x | 0.8 | 15 | 15 | 1.4
COc1ccc(OC)c(NC(=O)c2cccnc2)c1 | i | 8 | 5 | 11 | 1.9 | -10 | -1.1 | 12 | 4 | 2.2
CC(C)OCC(O)CS(=O)(=O)Cc1ccccc1 (stereo not given) | x | -5 | -11 | -31 | 1.4 | -9 | x | x | x | x

This is a subset; the hit share may differ from the screen's.
